Six1-Eya2 blk: blocks human Six1 binding to Eya2. Q15475+O00167. AlphaScreen GST-Six1/His-Eya2 binding, biochemical; active compounds read low; control for the full effect not named in the record. activity change, % (concentration not given with the values). actives 0.56% (n = 360,000); in the data active = activity change below about -65%; inconclusive = about -30% to -65%; inactive = above about -30%; further: on the % scale 0 is the no-effect control and ±100 the full control effect
Target sequence (O00167 whole entry, looked up): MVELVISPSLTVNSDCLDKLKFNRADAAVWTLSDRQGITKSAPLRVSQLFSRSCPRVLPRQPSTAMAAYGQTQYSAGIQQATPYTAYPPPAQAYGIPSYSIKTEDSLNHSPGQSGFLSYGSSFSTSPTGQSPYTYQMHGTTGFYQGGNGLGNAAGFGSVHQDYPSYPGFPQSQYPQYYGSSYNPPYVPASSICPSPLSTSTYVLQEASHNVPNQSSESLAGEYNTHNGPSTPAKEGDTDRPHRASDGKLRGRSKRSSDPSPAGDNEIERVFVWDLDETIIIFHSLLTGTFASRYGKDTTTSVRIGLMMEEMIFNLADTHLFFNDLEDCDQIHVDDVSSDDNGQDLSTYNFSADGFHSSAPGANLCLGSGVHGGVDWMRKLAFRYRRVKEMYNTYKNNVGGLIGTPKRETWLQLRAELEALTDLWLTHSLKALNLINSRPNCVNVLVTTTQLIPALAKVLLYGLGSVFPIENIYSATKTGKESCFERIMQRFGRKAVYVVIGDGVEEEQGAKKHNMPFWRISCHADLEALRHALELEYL
Target sequence (Q15475 whole entry, looked up): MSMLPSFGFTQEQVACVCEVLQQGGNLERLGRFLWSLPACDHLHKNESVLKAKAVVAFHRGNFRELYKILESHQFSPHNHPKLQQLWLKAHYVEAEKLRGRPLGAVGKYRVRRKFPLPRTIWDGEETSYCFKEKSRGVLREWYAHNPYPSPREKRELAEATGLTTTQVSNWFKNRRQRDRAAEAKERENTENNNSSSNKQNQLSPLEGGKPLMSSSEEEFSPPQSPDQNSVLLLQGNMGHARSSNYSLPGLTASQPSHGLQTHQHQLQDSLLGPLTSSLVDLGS
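Homogeneous AlphaScreen proximity assay pairing GST-Six1 with His-tagged Eya2 (added as 5X mix: 250 nM and 500 nM) in 50 mM Tris pH 8.0, 300 mM NaCl, 1 mM TCEP. Glutathione donor and nickel acceptor beads; 1 h, 37 °C, dark.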
TRPML1 ag: activates the human TRPML1 channel. Q9GZU1. TRPML1-expressing cells, Ca2+ dye fluorescence, FDSS; host cell line not named in the record; reference of the full effect not given here. activation, % (concentration not given with the values). actives 0.12% (n = 410,000); in the data active = activation above about 50%; inconclusive = about 30% to 50%; inactive = below about 30%; further: 0% is about no effect; the text of the record puts the active cut at 80%
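Tet-induced TRPML1-DL cells, 1,500 per well, cultured overnight, were loaded with a no-wash Ca2+ dye for 45–90 min. Calcium fluorescence was recorded on the FDSS for 110 s after compound addition, before the EC80 agonist (4 uM 54-4) was added.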
D2 agonist: activates the human D2 dopamine receptor; DiscoveRx PathHunter D2 beta-arrestin, luminescence, 90 min; 100% = 57 uM dopamine signal; P14416; actives 0.084% (n = 360,000); AID 624465; activation, % (no concentration beside the values); in the data active = activation above about 40%; inconclusive = about 15% to 40%; inactive = below about 15%; further: compound concentration not given in the record; the text of the record calls up to 30% inactive
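DiscoveRx PathHunter D2 beta-arrestin cells (2,100/well) attached overnight, then compound-stimulated 90 min at 37 C in HBSS/10 mM HEPES/0.1% Tween-20 buffer; beta-galactosidase complementation read by luminescence after 1 h at ambient temperature. Dopamine 57 uM final (EC100) as control.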
D2 potentiator: positive allosteric modulators of human D2 dopamine receptor | P14416 | DiscoveRx D2 beta-arrestin cells, luminescence, 90 min; 100% = 57 uM dopamine signal | potentiation, % (test concentration not listed) | actives 0.23% (n = 360,000); active = potentiation of 50% or more; inconclusive = 30% to 50%; inactive = 30% or less;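 further: compound concentration not given in the record; tested on top of an EC20 dose of dopamine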
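PathHunter D2 cells, attached overnight at 37 deg C, received compound in DMSO plus dopamine at EC20 (50 nM final) for 90 min at 37 deg C. Beta-arrestin recruitment was read as luminescence after 1 h with detection reagent at ambient temperature.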
PINK1 expr mod: modulators of PINK1 expression | Potency, µM (top dose mostly 76.6 µM), inactives show at the top dose activation (PINK1 increase), actives largely listed as activators | actives 0.2% (n = 410,000) | PINK1 immunofluorescence, high-content cytometry, 24 h; active = well fitted activation curve with a large enough effect; inconclusive = small, poorly fitted or top-dose-only effect; inactive = flat fitted curve, though single readings scatter; cell line not stated here;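 further: potency means the concentration at half of the fitted maximal effect; % of control where 0% means no effect; nearly all actives have a fitted effect of over 65% in size; a mitochondrial uncoupler was the plate control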
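Compound titrations (5 concentrations, 24 h) on a stable cell line; DMSO and CCCP controls. Endpoint: fixed-cell PINK1 immunofluorescence with mitochondrial, cell and nuclear markers, scanned by microplate cytometer.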
CtBP-E1A blk: inhibitors of CtBP/E1A interaction; activity change, % (concentration not given with the values); actives 0.49% (n = 340,000); AlphaScreen GST-E1A/His-CtBP binding, 1536-well; active compounds read low; control for the full effect not named in the record; in the data active means activity change below about -65%; inconclusive means about -30% to -65%; inactive means above about -30%; further: on the % scale 0 is the no-effect control and ±100 the full control effect
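Steps: dispense buffer (Tris pH 8.0, NaCl 300 mM, TCEP 1 mM, BSA, Tween 20); add 5X protein mix (GST-E1A, His-CtBP, 125 nM each); pin 23 nL compound; 2 h at 37 °C, dark; add 5X beads (50 ug/mL); 1 h; read.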
The depositor's hits bear a star; ? = inconclusive; . = no result given; & = joins results of further samples; [ ] = another dose, or the depositor's remark.

SMILES	Six1-Eya2 blk	TRPML1 ag	D2 agonist	D2 potentiator	PINK1 expr mod	CtBP-E1A blk
CCOC(=O)C1=C(C)NC(=O)C(C#N)C1c1ccncc1 (stereo not drawn)	-0.8	1.0	-4.4	-7.4	1.6%[38.3 µM]	13.6
CCOC(=O)N1CCc2c(sc(NC(=O)CN3CCOCC3)c2C#N)C1	2.4	0.6	-1.8	-1.1	0.1%	5.8
COc1cc(C)c(NC(=O)COc2ccc3c(c2)OCO3)cc1C	-7.6	1.4	-1.2	-2.2	4.7%	-1.0
CCC(C)NC(=O)CN1C(=O)NC2(CCc3ccccc3C2)C1=O (stereo not drawn)	-0.3	-0.2	-5.6	-2.1	-0.1%	-7.2
CC(O)C(NS(=O)(=O)c1ccc(Cl)cc1)C(=O)OCC(=O)N1CCN(c2ccccc2)CC1 (stereo not drawn)	-7.7	-0.1	-3.8	-29.0	-0.3%	-7.9
Cc1ccc(CNC(=O)c2cccnc2Cl)cc1	1.2	-0.5	-0.8	-7.6	-2.2%	-1.0
CC#CC#Cc1cccc(=O)o1	-10.3	3.3	-2.6	1.6	?	.
O=C(CSc1nncn1-c1ccccc1)NC1CCCc2ccccc21 (stereo not drawn)	-4.8	0.8	-3.6	4.5	0.1%	10.5
Cc1cccc(C(O)c2ncc(-c3ccc4ccccc4c3)[nH]2)c1C (stereo not drawn)	-6.0	-0.9	-4.8	-13.1	9.4%	-8.4
CCC(CC)C(=O)Nc1cc(C)cc(C)c1	8.7	0.0	-2.3	8.1	0.2%	4.3
CC(=O)c1ccccc1NC(=O)COC(=O)/C=C/c1cccs1	7.6	4.5	-2.8	10.5	14.0%	3.1
Cc1c(NS(=O)(=O)c2cc(C(=O)NCc3ccco3)cc(Cl)c2Cl)c(=O)n(-c2ccccc2)n1C	-4.9	0.8	-4.1	-67.4	0.1%	-2.5

By substructure: the compounds so far containing nitrogen in an aromatic ring
SMILES	Six1-Eya2 blk	TRPML1 ag	D2 agonist	D2 potentiator	PINK1 expr mod	CtBP-E1A blk
CCOC(=O)C1=C(C)NC(=O)C(C#N)C1c1ccncc1 (stereo not drawn)	-0.8	1.0	-4.4	-7.4	1.6%[38.3 µM]	13.6
Cc1ccc(CNC(=O)c2cccnc2Cl)cc1	1.2	-0.5	-0.8	-7.6	-2.2%	-1.0
O=C(CSc1nncn1-c1ccccc1)NC1CCCc2ccccc21 (stereo not drawn)	-4.8	0.8	-3.6	4.5	0.1%	10.5
Cc1cccc(C(O)c2ncc(-c3ccc4ccccc4c3)[nH]2)c1C (stereo not drawn)	-6.0	-0.9	-4.8	-13.1	9.4%	-8.4
Cc1c(NS(=O)(=O)c2cc(C(=O)NCc3ccco3)cc(Cl)c2Cl)c(=O)n(-c2ccccc2)n1C	-4.9	0.8	-4.1	-67.4	0.1%	-2.5

The list continues.
SMILES	Six1-Eya2 blk	TRPML1 ag	D2 agonist	D2 potentiator	PINK1 expr mod	CtBP-E1A blk
Cc1ccccc1-n1c(-c2ccco2)n[nH]c1=S	5.4	0.3	3.8	1.4	1.9%	2.9
COc1cccc(C(=O)Nc2cnc(NC(=O)c3ccco3)cc2C)c1	-2.4	-1.0	2.2	-2.2	3.0%	2.1
O=C(NNS(=O)(=O)c1ccc([N+](=O)[O-])cc1)c1cnn(-c2ccccc2)c1-n1cccc1	-1.1	-0.8	-2.2	13.3	-1.0%	1.2
CCOC(=O)Nc1ccc(N2CCOCC2)c(S(=O)(=O)Nc2ccc(Cl)cc2)c1	0.1	-0.2	-1.1	-5.9	5.5%	-2.1
Cc1cc(C(=O)N2CCN(c3ncccn3)CC2)nn1C	-1.5	-0.3	-3.5	-1.7	0.2%	0.9
COc1ccc(OCCCn2ccnc2)cc1	42.7	1.2	-1.3	-9.5	0.7%	-8.4
O=S(=O)(Cc1c(F)cccc1Cl)c1ncn[nH]1	-23.9	0.7	-0.5	-0.5	-2.0%	0.0
Cc1ccc([N+](=O)[O-])cc1S(=O)(=O)Nc1cccc(-c2ccc(N3CCCC3)nn2)c1	-25.8	0.0	3.3	-0.7	5.4%	-3.9
CCOC(=O)N1CCN(C(=O)C2CCN(C(=O)c3ccc(C(C)(C)C)cc3)CC2)CC1	6.4	-0.8	-4.8	14.9	3.8%	15.4
COc1ccc(NC(=S)N2CCN(c3ccccc3)CC2)c(OC)c1	-15.2	-0.7	3.6	-7.6	0.4%	-19.2
Cc1cccc(CS(=O)(=O)Cc2ccc(C(=O)NCCCN3CCOCC3)o2)c1	9.0	-0.3	-4.3	8.5	8.6%	4.3
CCS(=O)(=O)c1ccc(OC)c(N=Nc2ccc(O)c3ncccc23)c1	-91.6*	0.4	2.3	-4.1	?	-96.3*
COc1ccc(Cc2nn[nH]n2)cc1	5.8	-0.7	-1.4	-11.4	2.1%	5.8
O=C(NCC(c1cccs1)N1CCOCC1)c1cc2ccccc2o1 (stereo not drawn)	4.2	-0.2	1.0	2.0	1.6%[38.3 µM]	-2.4
O=C(CCCN1C(=O)/C(=C/c2ccccc2Cl)SC1=S)Nc1cccnc1	-24.9	-0.7	0.8	-6.3	-1.2%	0.0
NC(=O)c1ccc(NC(=O)CN2CCN(S(=O)(=O)c3ccc4c(c3)OCCO4)CC2)cc1	-1.6	0.4	-2.3	-0.6	1.8%	-12.7
NC(C(=O)O)C(c1ccccc1)C(F)F (stereo not drawn)	-10.2	.	-5.0	-6.4	1.2%	-0.4
COc1ccc(OC(C)C(=O)NCC2CCCO2)cc1 (stereo not drawn)	2.0	0.5	1.8	-9.0	2.9%	4.3
NC1(N)OC(CN2C(=O)c3ccccc3C2=O)CS1 (stereo not drawn)	8.3	-1.0	-5.1	-7.3	1.2%	-0.1
O=C(C1CCCN(S(=O)(=O)c2cccc3nsnc23)C1)N1CCN(c2ccccn2)CC1 (stereo not drawn)	-2.6	-0.1	-2.3	13.3	-0.5%	-1.3
CC(=O)C[C@H](O)CC(=O)[C@@H]1OC(=O)CCCCCCc2ccccc21	7.6	-0.8	-0.4	-5.4	0.9%	4.6
C=CCNC(=O)c1ccc2c3n(nc2c1)-c1ccc(C)cc1CO3	-13.2	0.1	-0.9	-4.9	13.9%	-10.2
Cc1ccc2[nH]c(C)c(CCNC(=O)c3c(N)no[n+]3[O-])c2c1	-20.7	0.3	0.6	-7.2	1.8%	-25.5
COc1ccc(NC(=O)CCS(=O)(=O)c2ccc(Br)s2)cc1	-1.3	0.2	-4.1	-5.5	-0.4%	2.1
Cc1cc(NC(=O)c2ccccc2F)on1	4.0	-0.2	3.8	-3.2	3.6%	0.0
O=C1NC[C@@H](c2ccccc2)OC(=O)[C@@H](Cc2ccc(F)cc2)C/C=C\C[C@@H]1CC(=O)N(CCO)Cc1ccccc1	1.4	-0.3	-4.0	-8.8	0.0%	.
CCCc1cc2c(=O)c(-c3nc4ccccc4s3)c(COCC(=O)O)oc2cc1O	-11.6	-0.2	-0.6	4.1	3.8%	8.8
CC(=O)Nc1ccc(NC(=O)CSc2nnc(NC(=O)c3ccc(Br)o3)s2)cc1	-11.3	0.1	1.7	-8.3	-3.5%	-7.8
Nc1ccc(O)cc1C(=O)OCC(=O)C12CC3CC(CC(C3)C1)C2	-4.9	1.0	13.7	28.2	7.8%	-16.6
Cc1cc(Cl)ccc1OCC(=O)OCC(=O)NCCNC(=O)COC(=O)COc1ccc(Cl)cc1C	10.9	3.7	4.3	-3.6	1.1%	-7.4
COC(=O)[C@@]12CCCCN1[C@H](c1ccc(SC3CCCCC3)cc1)[C@@H]1C(=O)N(C)C(=O)[C@@H]12	7.3	1.0	0.6	-6.8	-1.0%	5.5
O=C1NC(c2cn(-c3ccccc3)nc2-c2cccs2)C(C(=O)c2cccnc2)C(O)(C(F)(F)F)N1 (stereo not drawn)	9.1	-0.8	1.5	8.0	1.6%	0.0
O=C(Nc1ccccc1)/C(=C\c1ccc(F)cc1)NC(=O)c1ccco1	-1.2	-0.3	1.5	0.2	12.1%	2.5
Cc1nn2c(-c3cccc(NC(=O)CN4CCOCC4)c3)nnc2c2ccccc12	?	0.4	-2.9	-2.2	.	-13.6
O=C(O)CSc1nnc(-c2ccccc2)c(-c2ccccc2)n1	-1.9	.	-8.5	-7.2	-0.2%	0.9
O=C(CN1C(=O)C2CCCCC2C1=O)Nc1ccccc1N1CCCC1 (stereo not drawn)	-0.2	0.3	-0.7	2.4	2.9%	-16.4
COC(=O)NNC(=O)C1CCC(C)CC1 (stereo not drawn)	-15.8	1.8&-0.1	-0.2	-3.3	-0.5%&1.6%	5.5
O=c1[nH]c(SCc2ccccc2Cl)nc2c1cnn2-c1ccccc1	-8.1	-0.5	-5.9	-2.6	4.1%	-1.0
O=C(OCC(=O)N1CCCc2ccccc21)c1cc(S(=O)(=O)N2CCOCC2)ccc1Cl	-8.6	0.7	0.4	-6.2	0.7%	-4.6
O=C(Nc1cccnc1)c1cc(Cl)ccc1Cl	7.3	-0.1	-4.6	-3.8	2.0%	-2.3
O=C(NCCCN1CCN(c2ccc(F)cc2)CC1)Nc1ccc([N+](=O)[O-])cc1	-26.5	.	-3.0	-22.3	11.5%	-6.8
COc1ccc(N(CC(=O)Nc2ccccc2C(=O)O)S(=O)(=O)c2ccc(C)c([N+](=O)[O-])c2)cc1	0.0	1.6	1.3	-23.6	-1.5%	9.0
COc1c(C)cc(C(=O)C2CCCN(S(=O)(=O)c3c(C)noc3C)C2)cc1C (stereo not drawn)	3.6	-1.1	-3.6	-6.6	10.5%	2.9
Nc1ccc(N2C(=O)c3ccccc3C2=O)c(Cl)c1	1.1	1.3	-6.2	-2.7	0.6%	5.2
Cc1ccc(CNC(=O)CCNS(=O)(=O)c2cccs2)cc1	3.1	1.2	2.7	5.9	1.6%	-0.6
O=C(c1ccc(COc2ccccc2Cl)o1)N1CCN(c2ccccc2)CC1	-23.2	1.7	-0.9	2.6	0.0%	-2.1
Cc1csc(Nc2ccccc2)[n+]1-c1ccccc1	-23.7	0.0	-5.0	-8.4	4.9%	?
CC(=O)N1CCOc2ccc(S(=O)(=O)NCCc3ccc(C)cc3)cc21	5.2	0.3	4.2	-12.8	1.1%	7.3
COc1ccccc1N1CCN(CC(=O)Nc2sccc2C#N)CC1	-6.6	-0.5	-2.6	-23.3	-0.1%	9.2
CC(C)COC(=O)Cc1c(O)c2ccccc2[nH]c1=O	6.9	-0.5	-4.9	-21.0	-0.3%	-5.5
C=CCn1cccc(C(=O)Nc2ccc(C)c(C)c2)c1=O	14.8	0.0	-4.1	-2.5	4.1%	-12.7
O=C(COC(=O)c1cccc(Br)c1)NCC1CCCO1 (stereo not drawn)	-2.3	-0.3	-1.6	-4.4	1.4%	9.5
Cc1ccc(NC(=O)Nc2cccc3ccccc23)cc1	5.1	0.3	1.1	-10.0	2.3%	-1.1
CNc1nc(SCC(=O)Nc2ccc(Cl)c(Cl)c2)nc(N2CCOCC2)n1	-3.2	0.8	-1.0	-10.2	0.9%	5.3
COc1ccccc1N(CC(=O)Nc1cccnc1)S(C)(=O)=O	-2.1	0.5	2.3	-4.5	5.0%[38.3 µM]	-4.0

Screens deposited in PubChem by National Center for Advancing Translational Sciences (NCATS).

Hits appear at their usual frequency; any-hit rate near 1.3%.
